hNpr1 antagonist: human Npr1 receptor antagonism. Potency, µM (top dose mostly 46.3 µM), for inactives: at the highest dose activity change, negative = inhibition, usual class: inhibitors. 76,000 compounds, 1.6% hits. HEK293 hNpr1 GloSensor cGMP, ANP-stimulated luminescence. AID 1347048; active = well fitted inhibition curve with a large enough effect; inconclusive = small, poorly fitted or top-dose-only effect; inactive = no such curve, though single readings can be large or run the other way;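 note: nearly all actives have a fitted effect of over 60% in size; nearly all hits also lower the signal before the agonist is added; a reference antagonist and vehicle were the controls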
Target sequence (P16066 whole entry, looked up): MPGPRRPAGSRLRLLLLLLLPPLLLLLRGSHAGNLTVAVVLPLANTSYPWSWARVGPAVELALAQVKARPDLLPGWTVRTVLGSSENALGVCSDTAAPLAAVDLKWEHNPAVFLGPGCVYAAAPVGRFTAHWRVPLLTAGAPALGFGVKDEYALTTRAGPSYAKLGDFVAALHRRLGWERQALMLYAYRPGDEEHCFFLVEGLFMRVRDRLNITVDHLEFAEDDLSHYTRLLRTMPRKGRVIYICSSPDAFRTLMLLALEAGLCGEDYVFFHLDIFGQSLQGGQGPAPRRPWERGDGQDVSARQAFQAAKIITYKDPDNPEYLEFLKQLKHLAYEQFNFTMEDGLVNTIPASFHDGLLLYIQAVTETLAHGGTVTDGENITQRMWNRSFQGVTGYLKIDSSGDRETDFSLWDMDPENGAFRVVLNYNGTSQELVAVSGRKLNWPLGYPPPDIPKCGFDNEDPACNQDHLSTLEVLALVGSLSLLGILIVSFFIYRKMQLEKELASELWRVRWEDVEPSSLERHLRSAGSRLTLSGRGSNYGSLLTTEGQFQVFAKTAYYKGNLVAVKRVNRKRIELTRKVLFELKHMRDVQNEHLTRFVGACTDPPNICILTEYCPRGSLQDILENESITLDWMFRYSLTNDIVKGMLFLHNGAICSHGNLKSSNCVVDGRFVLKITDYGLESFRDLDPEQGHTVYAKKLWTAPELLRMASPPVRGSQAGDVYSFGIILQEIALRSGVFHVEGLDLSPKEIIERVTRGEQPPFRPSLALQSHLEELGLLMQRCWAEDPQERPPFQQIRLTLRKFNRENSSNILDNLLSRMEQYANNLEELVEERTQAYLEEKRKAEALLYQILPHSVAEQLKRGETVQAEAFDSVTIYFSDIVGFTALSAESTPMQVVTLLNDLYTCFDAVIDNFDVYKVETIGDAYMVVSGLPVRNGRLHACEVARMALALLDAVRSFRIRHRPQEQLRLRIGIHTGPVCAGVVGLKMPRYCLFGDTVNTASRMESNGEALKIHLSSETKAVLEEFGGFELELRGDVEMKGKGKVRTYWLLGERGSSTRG
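HEK293 cells stably expressing human Npr1 and cGMP GloSensor pGS-40F, loaded 2 h with 2% GloSensor reagent, given compound 30 min at room temperature. Luminescence read before and 20 min after 0.1 nM hNppA.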
Active calls of the source: *; u = inconclusive; [ ] = remark or other dose. % is set by controls: 0 for no effect and ±100 for the full control effect; potency is the fitted concentration of half-maximal effect.

SMILES | hNpr1 antagonist
CC(=O)N1CCN(C(=O)N2CC3CC(C2)[C@H]2CCCC(=O)N2C3)CC1 (stereo partly specified) | -2%
O=C(NCc1ccncc1)C1CN(Cc2cccc(Br)c2)CC12CCOCC2 (stereo unspecified) | -12%
Cc1cc(OC2CN([S+](=O)([O-])c3ccc(C(F)(F)F)cc3)C2)ccc1F | -22%
Cc1cc(C[C@@H]2COC[C@@H]2NC(=O)CCN2CCCC2=O)on1 | 2%
O=C(c1ccc(F)cc1)N1CCc2nc(OCC3CC3)ccc2C1 | -10%
O=C1NC2(CCCN(Cc3ccc(OC(F)(F)F)cc3)C2)Oc2ccccc21 (stereo unspecified) | -11%
O=C1O[C@@H]2CN(C3CCCC3)C[C@@H]2N1CCc1cccc(Cl)c1 | 1%
N#Cc1cccc(-c2cn3c(n2)N(C(=O)CC2CCCC2)CCC3)c1 | -13%
CC(C)(C(=O)N1C[C@H](C2CC2)[C@@H](N)C1)c1ccccc1 | 5%
COCC(=O)N1CCCN(Cc2ccncc2)C(c2ccccc2)CC(=O)NCC1 (stereo unspecified) | 6%
Cc1ccccc1-n1cc(CN(C)Cc2nc(-c3ccc(C(F)(F)F)cc3)no2)cn1 | -19%
CCNC(=O)c1ccc(N2CC3CC(C2)[C@H]2CCCC(=O)N2C3)nc1 (stereo partly specified) | -1%
O=C(CC1CCCC1)N1CCCC(c2nn[nH]n2)C1 (stereo unspecified) | 2%
COCCN1C(=O)c2cccn2CC1CNC(=O)c1ccc2ccccc2n1 (stereo unspecified) | -3%
CC(C)CCNC(=O)c1ccc(-c2ccc(N3CCSCC3)nc2)cc1 | -7%
CN1CC2(CCCN(Cc3cc4ccccc4n(C)c3=O)C2)OC1=O (stereo unspecified) | 6%
O=C(CCC1CCCC1)N1C[C@@H](CO)[C@H](c2ccncc2)C1 | -1%
COc1ccc(S(=O)(=O)N[C@H]2C[C@@H](c3nc(-c4ccc(C)cc4)no3)N(C)C2)cc1 | u
COC(=O)c1ccc2nc(C[C@@H]3C[C@@H](C(C)C)[C@H](CNC4CCN(C(C)=O)CC4)C=C3C)[nH]c2c1 | 1%
COCCN[C@H]1[C@@H]2OC[C@@H](O2)[C@@H](NC(=O)Nc2ccc(OC)cc2)[C@@H]1O | 4%[70.6 µM]
COc1ccc2[nH]c3c(c2c1)CCN(C)C31CCN(C(=O)c2cc(C)nn2C)CC1 | -4%
CCn1cc(CN2CCCC23CCN(c2cc(C)nc4ccccc24)CC3)cn1 | -1%
CCOc1ccccc1NC(=O)N1CCC([C@@H]2[C@H](OC)C(=O)N2C(C)C)CC1 | 1%
Cc1ccc([S+](=O)([O-])N2CCN(c3nc4ncccc4o3)CC2)cc1 | 2%
CC(=O)N1CCC(CC(=O)N(C)Cc2ccccc2)C1 (stereo unspecified) | -6%
COCC(=O)N1CCC(Oc2ccc(C(=O)N3CCOCC3)cn2)CC1 | 1%
Cc1cc(C)cc(Nc2nc(C)cc(=O)n2CC(=O)Nc2cccc(Br)c2)c1 | -22%
COc1ccc(NC(=O)N2CCCCC2c2nc(-c3cnccn3)n[nH]2)cc1 (stereo unspecified) | 6%
O=C(CCCc1ccccc1)Nc1ccnn1C1CCN(C(=O)Cc2ccccc2F)CC1 | -1%
COc1ccccc1C(=O)N1CCC2(Cc3ccccc3NC2=O)C1 (stereo unspecified) | -8%
CC1=C[C@@H](CNS(=O)(=O)c2ccc(C)cc2)[C@H](C(C)C)C[C@H]1CC(=O)N(C)Cc1cccnc1 | -19%
Cc1noc([C@@H]2CN(C(=O)c3cccc(C(F)(F)F)c3)C[C@H]2C(N)=O)n1 | 0%
COCc1noc([C@@H]2CC(F)(F)CN2C(=O)CC(C)(C)C)n1 | 1%
O=C1N(CC2CCC2)CCCC12CCN(S(=O)(=O)N1CCOCC1)C2 (stereo unspecified) | -1%
COC1CCC12CCN(Cc1cccnc1)CC2 (stereo unspecified) | 3%
CC(C)NC(=O)C1CCC(=O)N1C1CCN(C(=O)c2cc(F)cc(F)c2)CC1 (stereo unspecified) | -13%
Cc1ccc2c(c1)CCCN2C(=O)CN1CCn2nc(CO)cc2C1 | -13%
O=c1cc(-c2ccccn2)oc2c(Nc3cccnc3)nccc12 | 4%[70.6 µM]
COCCN1CCNc2nc(CNc3ccon3)n(Cc3ccccc3)c2C1=O | -10%[70.6 µM]
CCc1cccc2c(C(CC(=O)N3CCCC3)c3cccc(Cl)c3)c[nH]c12 (stereo unspecified) | -2%
COc1ccc(Cn2c(C3CCN(C(=O)c4cccc(F)c4)CC3)n[nH]c2=O)cc1 | 0%
Clc1cccc(-c2ccc(CN3CCN(C4CCNC4)CC3)o2)c1 (stereo unspecified) | 0%
COc1ccc(C(=O)N2CCCC3(C2)NC(=O)N(Cc2cccc(Cl)c2)C3=O)cc1 (stereo unspecified) | 2%
O=C(c1cccc(Cl)c1)N1CCc2nc(-c3ccc(Cl)cc3)nc(-c3ccccc3)c2C1 | 2%
COCC1CN(C(C)=O)CC12CCN(C1CCN(C(C)=O)CC1)CC2 (stereo unspecified) | -3%
CCCn1ncnc1-c1ccc(C(N)=O)c(Cl)c1 | -4%
OC[C@@H]1O[C@H](CNC2CCOCC2)[C@H](N2CCCCC2)[C@@H]1O | -2%[70.6 µM]
CCc1ccc(Nc2ncncc2-c2nc(-c3ccccc3)no2)cc1 | 5%
Cc1ccsc1C(=O)N1C[C@@H](F)C[C@H]1C(=O)N1CCCCC1 | -6%
CC(=O)N1CCCC1c1nc(C2CN(C(=O)c3ccsc3)C2)no1 (stereo unspecified) | -3%
(listing goes on)
SMILES | hNpr1 antagonist
CCCn1c(C)cnc1CC1CCCN(S(C)(=O)=O)C1 (stereo unspecified) | -1%
O=C(Nc1ccccc1)N[C@H]1CO[C@H]2[C@@H]1OC[C@@H]2n1nnnc1-c1ccc2c(c1)OCO2 | -7%
O=C1CC2(CCN([S+](=O)([O-])c3cccc(C(F)(F)F)c3)CC2)Oc2ccccc21 | 0%
Cc1nc(-c2ccccc2)n(CC(=O)Nc2ccc(F)cc2)c(=O)c1CCO | -11%
O=C(c1ccncc1)N1CCC(OCC2CC2)C1 (stereo unspecified) | -1%
COc1ccc(NC(=O)Cn2c(=O)n(-c3ccccc3)c(=O)c3c2cc(C)n3C)cc1OC | -1%
O=C(CCc1ccccc1)N1CCCCCC1c1nc(-c2ccccc2)no1 (stereo unspecified) | -16%
CCCNC(=O)NCCc1ncc(C)n1C(C)C | 6%
O=C(c1cccc(-n2cnnc2)c1)N1CCCC(Nc2ccc(F)c(F)c2)C1 (stereo unspecified) | 0%
O=C(C1CCC1)N1CCOc2ccc(CN3CCc4ccccc4C3)cc2C1 | -18%

For convenience, some entries already given.
SMILES | hNpr1 antagonist
O=C(c1cccc(-n2cnnc2)c1)N1CCCC(Nc2ccc(F)c(F)c2)C1 (stereo unspecified) | 0%
O=C(C1CCC1)N1CCOc2ccc(CN3CCc4ccccc4C3)cc2C1 | -18%

Later entries:
SMILES | hNpr1 antagonist
CCCc1noc(-c2ccn3c(CNC(=O)c4ccc(C)c(F)c4)nnc3c2)n1 | 7%
CCOc1ccccc1C(C(=O)O)N1CCN(Cc2csc(C)n2)CC1 (stereo unspecified) | -1%
O=C1Nc2cc(Cl)ccc2C(=O)N2C[C@H](O)C[C@@H]12 | 5%[70.6 µM]
Cc1ccc([S+](=O)([O-])N2CCC(c3nn(-c4ccc(F)cc4)c(=O)[nH]3)CC2)cc1 | -13%
NC(=O)[C@H](Cc1ccc(O)cc1)NC(=O)[C@@]1(O)C[C@@H](O)[C@H](O)[C@@H](NC(=O)c2ccc(F)c(Cl)c2)C1 | 3%
C=CCCC(CN1CCCC1)Oc1ccc(C(=O)N2CCOCC2)cn1 (stereo unspecified) | -2%
CCOc1ccccc1C1NC(=O)N(CC(=O)Nc2ccc(F)c(Cl)c2)C2=C1C(=O)OC2 (stereo unspecified) | -8%
CCOc1ccc2c(n1)CCN(C(=O)c1ccc(OC)cc1)C2 | 2%
CCCNC(=O)N1CCC(c2noc(-c3cccnc3)n2)C1 (stereo unspecified) | 1%
Cc1noc(-c2ccccc2Cl)c1C(=O)NCCCc1ccccc1 | 0%
Cc1ncc2c(n1)CCCN(CC(=O)NCC1CC1)C2=O | -1%
O=C(c1ccc(F)c(Cl)c1)N1CCN(c2cc(-c3cccs3)[nH]n2)CC1 | -21%
CCc1nc(-c2c3n(c(=O)n(Cc4ccc(C(=O)OC)cc4)c2=O)CCCC3)no1 | -5%
O=C(N[C@H]1CCN2C(=O)N(c3cccc(C(F)(F)F)c3)C(=O)[C@@H]2C1)c1ccncc1 | 1%[70.6 µM]
O=C(NCc1nc(-c2ncccn2)no1)c1csc(-c2cccs2)n1 | 6%
COCC1CN(Cc2cn(C)c3ccc(OC)cc23)CC12CCNCC2 (stereo unspecified) | -13%
CCn1cc(S(=O)(=O)N2C[C@@H](Oc3ccccc3)C[C@@H]2C(=O)NCCOC)cn1 | -3%
O=C(c1n[nH]c2c1CCCCCC2)N1CCC(Cc2nncn2CC2CC2)CC1 | -12%
CN(Cc1ccccc1)Cc1ccccc1OCC(O)CN1CCCCC1 (stereo unspecified) | -2%
CCOc1ccccc1C1NC(=O)N(CC(=O)Nc2ccccc2C)C2=C1C(=O)OC2 (stereo unspecified) | 2%
CCc1nc2c(c(-c3ccc(Cl)cc3)n1)CN(C(C)=O)CC2 | -1%[70.6 µM]
CC(C)NC(=O)C[C@@H]1c2nc(NC(=O)C3CCCCC3)sc2C[C@@H]2[C@](C)(CO)[C@H](O)CC[C@]21C | 2%
COc1ccc(C(=O)N2CCc3nc(C)nc(-c4ccc(O)cc4)c3C2)cc1 | 5%
CCn1nc(C)c(CN2CCCC(CNC(=O)c3cccc(OC)c3OC)C2)c1C (stereo unspecified) | 3%
O=c1c2c(n(CCOc3ccccc3)n1-c1ccccc1)CN(Cc1ccc(F)cc1)CC2 | -22%
CCc1nc(CC)n2ccn(Cc3cccc(C#N)c3)c(=O)c12 | 1%
O=C(COc1ccc(F)cc1)N1CCC(n2cc(-c3nc(-c4ccccc4)no3)nn2)C1 (stereo unspecified) | -9%
COc1ccc(CN2CCC(CO)(CN3CCCC3)CC2)c(OC)c1C | 2%
O=C([C@@H]1Cc2nc[nH]c2CN1Cc1ccc(Cl)cc1)N1CCC(Cc2ccccc2)CC1 | -3%
CC(C)n1c(CNC(=O)Cn2nc3c(cc2=O)CCCC3)nc2ccccc21 | 3%
Cc1nnc([C@H]2CCN(C(=O)c3ccc4c(c3)OCO4)C2)o1 | 1%[70.6 µM]
COc1ccc(CN2Cc3[nH]cnc3C[C@H]2c2nc(-c3ccccn3)no2)cc1 | -18%[70.6 µM]
CCCCN(C)C(=O)Cc1cccn1-c1cccc(Cl)c1 | -14%
O=C(NCc1nc(-c2cccc(F)c2)c(-c2ccccn2)[nH]1)[C@@H]1C[C@@H](O)CN1 | 2%
COc1ccc(O[C@H]2COCCN(C(=O)c3cccc(OC)c3)C2)cc1 | -4%[70.6 µM]
CC(C)C(=O)Nc1ccc(C2(C(=O)NCCN3CCCCC3)CCCCC2)cc1 | 5%
c1ccc(-c2cc(CC3(NCC4CCCCC4)COC3)no2)nc1 | -16%[70.6 µM]
COc1ccc(CN2CCOC[C@H]2c2ncc(-c3cccc(F)c3)[nH]2)cc1 | -22%[70.6 µM]
COC[C@@H]1CN(S(=O)(=O)c2cc(F)ccc2OC)C[C@H]1C(N)=O | 3%
CCCN1CCN(C(=O)Cn2nc(C)c3sc(-c4ccccc4)nc3c2=O)CC1 | 0%
CC(C)n1cnnc1CC1CCCNC1 (stereo unspecified) | 1%
OC[C@]12CCCN[C@@H]1CCN(Cc1cccc(-c3ccccn3)c1)C2 | 0%
CC1=C[C@@H](CN2CCC(CO)CC2)[C@H](C(C)C)C[C@H]1Cc1nnc(-c2ccccc2)o1 | 0%[70.6 µM]
CN(Cc1cccc(C(F)(F)F)c1)C(=O)Nc1ccccc1 | 0%[70.6 µM]
O=C(C1CCCO1)N1CCc2c(n(Cc3cccnc3)n(CCc3ccccc3)c2=O)C1 (stereo unspecified) | -1%[70.6 µM]
COCCS(=O)(=O)c1ncc(CN(C)C(C)c2ccon2)n1Cc1ccccc1 (stereo unspecified) | 1%
Cc1nsc(NC(=O)NCc2ccccc2OC(F)(F)F)n1 | -3%
O=C(COc1ccccc1)NC[C@H]1COCc2nc3cccnc3n21 | -10%[70.6 µM]

In the list so far, 13 contain an NH in an aromatic ring:
SMILES | hNpr1 antagonist
O=C(CC1CCCC1)N1CCCC(c2nn[nH]n2)C1 (stereo unspecified) | 2%
COC(=O)c1ccc2nc(C[C@@H]3C[C@@H](C(C)C)[C@H](CNC4CCN(C(C)=O)CC4)C=C3C)[nH]c2c1 | 1%
COc1ccc2[nH]c3c(c2c1)CCN(C)C31CCN(C(=O)c2cc(C)nn2C)CC1 | -4%
COc1ccc(NC(=O)N2CCCCC2c2nc(-c3cnccn3)n[nH]2)cc1 (stereo unspecified) | 6%
CCc1cccc2c(C(CC(=O)N3CCCC3)c3cccc(Cl)c3)c[nH]c12 (stereo unspecified) | -2%
COc1ccc(Cn2c(C3CCN(C(=O)c4cccc(F)c4)CC3)n[nH]c2=O)cc1 | 0%
Cc1ccc([S+](=O)([O-])N2CCC(c3nn(-c4ccc(F)cc4)c(=O)[nH]3)CC2)cc1 | -13%
O=C(c1ccc(F)c(Cl)c1)N1CCN(c2cc(-c3cccs3)[nH]n2)CC1 | -21%
O=C(c1n[nH]c2c1CCCCCC2)N1CCC(Cc2nncn2CC2CC2)CC1 | -12%
O=C([C@@H]1Cc2nc[nH]c2CN1Cc1ccc(Cl)cc1)N1CCC(Cc2ccccc2)CC1 | -3%
COc1ccc(CN2Cc3[nH]cnc3C[C@H]2c2nc(-c3ccccn3)no2)cc1 | -18%[70.6 µM]
O=C(NCc1nc(-c2cccc(F)c2)c(-c2ccccn2)[nH]1)[C@@H]1C[C@@H](O)CN1 | 2%
COc1ccc(CN2CCOC[C@H]2c2ncc(-c3cccc(F)c3)[nH]2)cc1 | -22%[70.6 µM]

The list is partial (hit frequency here may not be typical).
